Assay outcomes (PubChem)
Bfl-1 A1 inh – inhibitors of the anti-apoptotic protein A1, read as caspase activation; caspase activation, % (test concentration not listed); AID 2462; 330,000 compounds, 0.066% hits; MEF A1-2A-BIM cells, Caspase-Glo 3/7 luminescence, 3 h; percent of clofoctol response, vehicle zero;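 active = over half of replicate activation scores above 10%, or exactly half above 10 with the replicate mean above 10; inconclusive = replicate mean below 10 yet half the replicates above 10; inactive = over half of replicates below 10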;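 also: wells of about 30 µL received 50 nL stock; many hits fall short of the cut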
ALR inh – human ALR oxidase inhibition via reduced H2O2; P55789; purified ALR, DTT oxidation, H2O2 HRP-luminol luminescence; inhibition, % (concentration not given with the values); 290,000 compounds, 3.8% hits; AID 485317;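 active = mean and each replicate at 75% or more; inconclusive = only one of the two met; inactive = neither met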;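 also: stock transfer was 7.5 nL into about 7.5 µL; 0% = neutral wells and 100% = wells with inactivated enzyme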
Target sequence (P55789 whole entry, looked up): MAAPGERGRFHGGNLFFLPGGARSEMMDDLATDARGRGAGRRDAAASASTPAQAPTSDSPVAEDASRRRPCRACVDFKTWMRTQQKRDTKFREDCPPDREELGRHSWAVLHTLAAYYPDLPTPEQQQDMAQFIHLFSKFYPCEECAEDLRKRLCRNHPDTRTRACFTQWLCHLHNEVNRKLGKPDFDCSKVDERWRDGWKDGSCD
Ecoli rRNA inh – inhibits bacterial ribosomal RNA function over humanized ribosomes | E. coli WT GFP vs humanized-ribosome RFP mutants, fluorescence, 24 h; stronger effect = lower value; DMSO median 0, no signal -100 | AID 720706 | GFP signal change (wild-type ribosome), % (concentration not given with the values) | 350,000 compounds, 1.6% hits;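 active = significant combined selectivity score with lowered wild-type GFP, culture density cut under 30%, mutant RFP and density less affected; inactive = any of these conditions unmet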; also: one replicate is shown; some compounds called inactive have numbers as strong as hits
T cruzi inh – blocks replication of Trypanosoma cruzi; 300,000 compounds, 1.4% hits; inhibition, % (test concentration not listed); AID 1885; T. cruzi beta-gal in NIH3T3, luminescence, 90 h;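 active = mean inhibition across valid replicates above about 55%, limit read from the data; inconclusive = mean below that limit but half or more replicates reach it; inactive = mean below it, under half of replicates reach it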;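 also: signal also drops with host cell toxicity which is not excluded here; 0% = plate median of DMSO wells and 100% = zero luminescence signal; higher percent means less beta-gal luminescence so fewer parasites; stock transfer was 50 nL into about 50 µL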
Beta apoptosis – beta cell apoptosis inhibition; 300,000 compounds, 0.8% hits; protection from apoptosis, % (concentration not given with the values); AID 435005; INS-1E cytokine-induced death, ATP luminescence, 48 h; percent of positive-control rescue, neutral wells zero;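 active = all replicates at 75% or more, or half of them and the mean; inconclusive = half reach 75% but not the mean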;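 also: 0% = cytokine-treated negative control wells and 100% = positive control rescue; higher means more ATP so stronger rescue from cytokine killing; wells of about 40 µL received 100 nL stock; the first replicate is given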
B2AR ag – human beta-2 adrenergic receptor agonism by FAP; P07550; Am2.2-beta2AR cells, FAP receptor internalization, flow cytometry; reference of the scale not given here; response, % (test concentration not listed); 340,000 compounds, 0.43% hits;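 active = response above a set limit, near 3 SD of response in nonfluorescent compounds, cut at about 42% in these data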;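 also: stock transfer was 100 nL into about 11 µL; a reference agonist was the positive control; negative values mostly stem from fluorescent compounds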
Target sequence (P07550 whole entry, looked up): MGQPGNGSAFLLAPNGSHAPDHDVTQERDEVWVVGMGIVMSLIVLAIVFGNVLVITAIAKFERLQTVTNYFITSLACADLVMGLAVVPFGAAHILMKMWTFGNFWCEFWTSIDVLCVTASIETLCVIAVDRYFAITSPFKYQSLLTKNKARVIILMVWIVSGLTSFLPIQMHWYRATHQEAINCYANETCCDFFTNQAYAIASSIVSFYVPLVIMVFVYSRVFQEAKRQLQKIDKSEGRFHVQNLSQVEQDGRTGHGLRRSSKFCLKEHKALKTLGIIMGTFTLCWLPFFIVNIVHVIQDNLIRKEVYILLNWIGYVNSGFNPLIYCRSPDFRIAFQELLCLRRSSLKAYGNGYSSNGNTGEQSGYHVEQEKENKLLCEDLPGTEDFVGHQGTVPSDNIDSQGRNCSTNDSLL
LANA-H2A inh – blocks KSHV LANA binding to histone H2A/H2B; Q9QR71; cell-free LANA-H2A/H2B peptide, fluorescence polarization; inhibition, % (no concentration beside the values); 320,000 compounds, 0.6% hits; AID 2629; in the data active = inhibition mostly above about 10%, no sharp cut-off; inactive = mostly below about 6.7%;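 also: stock transfer was 7.5 nL into about 10 µL; 0% = median of vehicle wells and 100% = median of positive control wells; one replicate is shown; the record names a cut of 25% in any replicate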
Calb FLC – C. albicans growth modulation with fluconazole; C. albicans CaCi-2 (fluconazole-resistant clinical isolate) + fluconazole, Alamar Blue growth, 48 h; growth inhibition, % (concentration not given with the values); 300,000 compounds, 0.57% hits;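 active = most replicates above 75%; inconclusive = exactly half above 75%; inactive = most below 75%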;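 also: all wells also contain fluconazole at 8 µg/ml as a sub-toxic cotreatment; 0% = median of DMSO wells and 100% = median of geldanamycin control wells; wells of about 8 µL received 7.5 nL stock; the first replicate is given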
Ecoli rRNA inh OD600 – second read-out of Ecoli rRNA inh, no call of its own (marks repeat the call); OD600 change, %; measured here: OD600 growth;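 optical density of the mix in the first replicate; 0 = DMSO median and -100 = no signal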
Ecoli rRNA inh RFP – second read-out of Ecoli rRNA inh, no call of its own (marks repeat the call); RFP signal change, %; measured here: RFP humanized mutant strains;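 first replicate; 0 = DMSO median and -100 = no signal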
Numbers without * were called inactive; ? = inconclusive; · = not tested or not shown. Only part of the results is shown; count on the stated rates, not on these rows.

SMILES	Bfl-1 A1 inh	ALR inh	Ecoli rRNA inh	Ecoli rRNA inh OD600	Ecoli rRNA inh RFP	T cruzi inh	Beta apoptosis	B2AR ag	LANA-H2A inh	Calb FLC
CCOC(=O)CSc1nnc(NC(=O)NC(C)C)s1	0.4	3	2	7	1.0	-3	-1	10	-1.6	-4
COc1cc(Cl)c(C)cc1NC(=O)COc1ccccc1[N+](=O)[O-]	-0.2	·	·	·	·	3	7	-4	2.8	14
FC(F)(F)c1ccc(-c2nc(=S)[nH][nH]2)cc1	-0.3	99*	-7	4	-1.9	-28	-5	8	4.0	0
COc1ccc(CNC(=O)c2cc3c(C)nc4ccccc4c3o2)c(OC)c1	-1.2	-2	·	·	·	1	71	·	-5.0	-7
COc1cc(NC(=O)c2cc(Cl)nnc2Cl)cc(OC)c1OC	-0.4	-9	7	1	-2.6	-8	-11	-2	-9.3	-2
COc1ccccc1NC(=O)N1CCN(c2cc(-c3ccccc3)nc3ncnn23)CC1	0.0	-7	10	4	-9.0	·	11	-5	-1.5	20
Cc1ccc(C)c(/C(O)=C2\C(=O)C(=O)N(CCCn3ccnc3)C2c2cccnc2)c1 (stereo unspecified)	?	-12	·	·	·	-11	-3	0	2.5	5
Cc1ccc2nc(-c3ccccc3)cc(C(=O)NCC(c3ccco3)N(C)C)c2c1 (stereo unspecified)	0.2	17	0	-9	4.8	51	0	10	-11	8
COc1ccc(NC(=O)Cc2coc3cc(C)c(C(C)C)cc23)cc1S(=O)(=O)N1CCOCC1	0.3	-23	-3	-7	12	-2	2	0	-1.4	0
COC(=O)N/N=C/c1ccc(-c2cccc(Cl)c2)o1	-1.6	1	·	·	·	29	1	-8	3.2	?
Cc1c(C(=O)NC(C)CCc2ccccc2)cccc1[N+](=O)[O-] (stereo unspecified)	-0.8	-3	·	·	·	1	-5	4	-0.4	5
O=C1CC(c2ccco2)CC(O)=C1C=NCCO (stereo unspecified)	-0.1	-11	·	·	·	-3	-3	-7	3.3	-1
CC(=O)c1cccc(NC(=O)CO/N=C2/CCCc3nonc32)c1	0.1	6	-2	-4	-3.3	-8	1	-1	-0.6	7
N#Cc1c(Cl)cccc1Oc1ccc(S(=O)(=O)Nc2ccccc2)cc1	-0.3	-5	-28*	4.4*	-3.4*	14	-4	18	-4.2	31
COc1ccc(CNC(=O)c2ccccc2NC(=O)C2=CSCCO2)c(OC)c1	-0.6	2	-17	-17	1.0	-5	·	0	2.0	1
OCCCn1c(-c2ccccc2)nc(=S)c2c1CCCC2	·	-3	·	·	·	-9	-1	-3	-5.1	12
Cc1cc(C(=O)COC(=O)c2ccc[nH]c2=O)c(C)n1-c1ccccc1F	0.1	·	1	-5	-3.9	-4	3	-8	1.3	1
CCN1C(=O)/C(=C\N2CCN(c3ccccc3)CC2)SC1=S	0.3	22	·	·	·	3	8	3	4.5	0
CC(C)N(Cc1nccn1C)C(=O)CC1C(=O)NCCN1Cc1ccc(F)cc1 (stereo unspecified)	0.3	-1	5	14	-2.8	12	-7	8	3.4	3
Cc1cccc(C(=O)Nc2ccc3ccccc3c2)c1	-1.4	16	-16	-8	-10	6	9	1	-3.9	-83
Cc1cc(C)c(-c2cc(C(=O)Nc3cc(C)ccc3C)[nH]n2)c(O)c1	0.6	·	6	7	1.9	-15	·	-5	1.1	30
Cc1ccc(-n2cc(CNCCCn3ccnc3C)c(-c3ccc(F)cc3)n2)cc1	-0.2	·	-54	-75	-23	84*	7	21	·	4
O=C(CCCn1c(=O)[nH]c2ccsc2c1=O)NCc1cccs1	-0.1	-1	·	·	·	-8	0	-9	-3.8	-6
COc1ccc2[nH]c3c(c2c1)CCN1C(=O)N([C@@H](C)C(=O)NCCc2ccc(OC)c(OC)c2)C(=O)[C@]31C	0.0	10	·	·	·	5	2	13	-2.2	7
Cc1cc(C)n2nc(C(=O)N/N=C/c3ccco3)nc2n1	0.2	-7	6	12	0.2	-5	-6	-14	-0.8	-10
COc1ccc(C2c3c(-c4ccccc4O)n[nH]c3C(=O)N2Cc2ccco2)cc1OC (stereo unspecified)	-0.3	37	-14	-14	14	6	-2	3	2.9	-1
CCOC(=O)N1CCN(C(=O)c2ccc3c(c2)N(Cc2ccc(F)cc2)CCS3)CC1	-1.0	98*	-54	-73	-13	-1	3	-10	-3.0	15
CCc1cccc(Nc2cnn(C34C[C@@H]5C[C@@H](CC(CC(=O)O)(C5)C3)C4)c(=O)c2Cl)c1	-0.3	1	-13	-12	-11	-3	-3	-1	-2.2	-15
Cc1ccc(S(=O)(=O)N2CCN(C(=O)COC(=O)c3cc(C)oc3C)CC2)cc1	0.4	-3	·	·	·	-5	-6	5	-4.3	5
CC(=O)N(CC(=O)O)c1ccccc1	1.2	3	15	19	-0.5	?	·	-10	-7.0	-5
Cc1nc(N2CCN(C(=O)c3ccco3)CC2)c2c3c(sc2n1)CC(C)CC3 (stereo unspecified)	-2.9	-12	-37	-57	-4.1	38	80*	-5	-3.9	42
Cc1ccc(NC(=S)N/N=C2/CCCCc3ccccc32)cc1	-0.7	-5	-4	1	6.1	22	13	-9	-0.3	39
COc1cccc(NC(=O)n2ncc3c(C)cccc32)c1	-8.1	-5	4	10	2.2	8	27	10	-0.6	-6
O=C(Nc1cc(Cl)cc(Cl)c1)C1C2C=CC3(O2)C1C(=O)N(CCCN1CCOCC1)C3C(=O)NC1CCCCC1 (stereo unspecified)	0.4	-9	-1	0	-0.6	10	1	6	2.2	-10
CC(=O)Nc1ccc(NC(=O)C(C)OC(=O)CC2CCCCC2)cc1 (stereo unspecified)	0.2	-8	-2	4	-1.1	-14	-5	-1	0.5	-1
Cc1cc(C)nc(NS(=O)(=O)c2ccc(NC(=O)c3ccccc3C)cc2)n1	0.1	-10	6	5	1.8	-7	-3	-9	-1.8	3
CCc1nnc(NC(=O)CS(=O)(=O)c2ccccc2)s1	0.6	-15	-1	-5	-1.8	-4	·	5	1.4	5
CCC(=O)Nc1ccc(CCC(=O)N2CCCC2)cc1	2.2	-7	20	18	7.0	-1	-7	-3	0.1	-7
COc1ccc(NS(=O)(=O)c2ccc3c(c2)[C@H]2C=CC[C@H]2[C@@H](c2ccc(C(=O)O)cc2)N3)cc1	-0.1	-11	-2	2	-0.2	-11	·	3	-5.1	21
Cc1cc(Nc2nnnn2-c2ccccc2)n(-c2ccc(Cl)cc2)n1	0.6	-8	·	·	·	-20	33	9	7.3	13
CC(C)n1nnnc1-c1ccc(Cl)cc1	-0.4	-1	9	8	-0.4	2	0	0	-2.1	-14
Cc1ccccc1C(=O)NNC(=O)c1cc(N)cc([N+](=O)[O-])c1	-0.1	-7	·	·	·	-15	0	5	-0.1	0
COc1ccc2c(c1[N+](=O)[O-])CCC/C2=N/OC(=O)c1ccccc1SC	0.2	-6	·	·	·	-1	-7	6	-2.2	2
O=C(NC(=S)Nc1ccc(N2CCCCC2)cc1)c1ccc2c(c1)OCCO2	0.1	·	-6	9	2.9	13	-1	-8	-12	-3
O=C(NCc1ccccc1)c1cccc(COc2ccc3c(c2)CCC3)c1	0.6	·	·	·	·	-6	-5	3	3.7	-11
Cc1ccc(Cl)c(NC(=O)CN2CCN(C=O)CC2)c1	0.0	·	·	·	·	-10	-3	·	-3.4	22
CCN(CC(=O)Nc1c(F)cccc1F)C(=O)c1ccc(N2CCCC2=O)cc1	-0.4	·	-1	1	-0.8	5	1	-5	7.5	-4
C=CCNC(=S)N/N=C/c1ccc(-c2cccc([N+](=O)[O-])c2)o1	-0.5	6	14	9	-1.2	10	6	-6	-2.6	-6
COc1c(O)cccc1/C=N/NC(=O)Cn1ccnc1C	0.0	47	3	4	2.0	?	-6	-6	9.3	5
S=C(NCCc1ccccc1)Nc1ccccc1	-0.3	13	6	7	-0.7	-6	2	2	2.6	-6
O=S(=O)(CCN1CCCCC1)Oc1ccc(Cl)cc1Cl	-0.8	·	6	5	1.2	5	-6	0	-5.1	-1
CCOC(=O)c1c(NC(=O)CN(C)C)sc(C(=O)N(CC)CC)c1C	0.9	-5	·	·	·	13	-4	-8	-4.3	7
CC(=O)c1ccccc1C(=O)N1CCCC(CCC(=O)N2CCN(c3ccccn3)CC2)C1 (stereo unspecified)	-0.3	-5	·	·	·	9	·	-6	3.2	-7
Cc1cccc(-c2nnn3c2nc(NCCc2ccc(S(N)(=O)=O)cc2)c2ccccc23)c1	0.4	43	·	·	·	19	4	19	2.5	2
Cc1ccc(CN2CCN(Cc3cnc(N4CCOCC4)s3)CC2CCO)o1 (stereo unspecified)	0.5	6	·	·	·	-9	2	1	-1.4	-24
Cc1ccc(S(=O)(=O)N(C)c2ccc3sc(C)nc3c2)cc1	-1.0	3	-19	-28	-2.2	11	3	-5	-2.9	4
CCOc1ccccc1N1Cc2ccccc2C1	0.5	-14	·	·	·	23	-8	30	-1.1	-7
Cc1ccc(NCc2nc3ccccc3n2C)c(C)c1	-7.2	98*	-16	-1	1.9	-10	-4	-9	0.8	-1
COc1cc([N+](=O)[O-])ccc1NC(=O)C1C2C=CC(C2)C1C(=O)O (stereo unspecified)	1.8	-4	5	5	-5.3	2	-7	2	-4.7	2
CCCCOC(=O)CSc1nc(N)c(C#N)c(-c2ccc(OCC)cc2)c1C#N	1.0	-8	·	·	·	8	-3	13	2.9	9
The listing continues:
SMILES	Bfl-1 A1 inh	ALR inh	Ecoli rRNA inh	Ecoli rRNA inh OD600	Ecoli rRNA inh RFP	T cruzi inh	Beta apoptosis	B2AR ag	LANA-H2A inh	Calb FLC
O=C(O)c1cc(NN=Nc2cccc(S(=O)(=O)O)c2)cc([N+](=O)[O-])c1	0.5	-2	-1	14	-3.3	-28	2	4	-0.8	0
CC(CC(=O)Nc1nnc(C(C)(C)C)s1)c1ccccc1 (stereo unspecified)	2.5	·	20	16	-0.6	17	-2	-4	6.3	-7
CCc1c(C(=O)Nc2ccccc2C(N)=O)csc1C	0.0	3	-17	-12	0.7	6	-4	7	1.2	-2
COc1cccc(C(=O)NCC(=O)N/N=C/c2ccc3c(c2)OCO3)c1	0.9	-17	9	9	0.0	-6	-1	4	-3.1	5
O=C(Cn1nc(C(=O)O)c2ccccc2c1=O)Nc1cc(Cl)cc(Cl)c1	0.2	-4	4	7	0.8	-2	-1	2	0.3	-5
CCOC(=O)N1CCN(C2=C(NS(=O)(=O)c3ccc(NC(C)=O)cc3)C(=O)c3ccccc3C2=O)CC1	-0.8	-5	3	-20	-1.8	-27	2	-8	4.8	10
COc1ccccc1N1CCN(C(=O)COc2cc(C)cc(C)c2)CC1	-0.1	17	-28	-30	-0.5	2	-8	-4	3.3	1
CCCCN(C(=O)CCCSc1nc2ccccc2[nH]1)c1c(N)n(Cc2ccccc2)c(=O)[nH]c1=O	-0.5	3	9	4	1.5	25	-5	-11	-5.9	7
